Screens (PubChem)
KSHV LANA nucl = inhibitors of KSHV LANA-nucleosome binding, primary screen, biochemical, fluorescence polarization, FITC-LANA1-23, chicken nucleosomes | FITC-LANA1-23 / chicken nucleosome fluorescence polarization; stronger effect = lower value | z-score (test concentration not listed) | hit rate 0.3% among 51,000;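 active = both repeat wells score below -2 in polarization z-score versus plate sample wells, excluding overly bright wells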;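 also: 100 nL library stock added to about 30 µL; numbers are from one replicate; some results filed as inactive read as strong as hits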
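test system = FITC-LANA peptide and chicken nucleosomes | amount = 240 nM purified chicken nucleosomes (480 nM peptide binding sites), final | reagent = 50 nM FITC-LANA1-23 probe | medium = TEN-BT buffer, pH 7.5 | doses = single compound addition by pin transfer, 100 nL per well | timing = 10–45 min, room temperature | detection = fluorescence polarization | repeats = duplicate plates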
BasE inh = BasE siderophore enzyme inhibitors, primary screen, biochemical, Acinetobacter baumannii ATCC 17978, fluorescence polarization | purified BasE, fluorescence polarization binding displacement | inhibition, % (test concentration not listed) | hit rate 0.1% among 84,000;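 active = both replicates above 25% with normal brightness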;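 also: 0% = negative plate control signal and 100% = positive plate control signal; stock transfer was 100 nL into about 30 µL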
* = called active by the depositor; x = no result given. Not all compounds are listed; rates above refer to the full screens.

Values run as follows: KSHV LANA nucl, BasE inh
> Cc1cccc(-n2c(SCc3c(C)noc3C)nc3ccccc32)c1
  x, -1.1
> Cc1cc(C)cc(OC(C)C(=O)Nc2ccc3c(c2)n(C)c(=O)n3C)c1 (configuration not stated)
  -1.5, -1.1
> CCCC1C(=O)N2C(N(C)C)=Nc3ccc(C)cc3N2C1=O (configuration not stated)
  -0.62, -1.3
> CCn1cc(CCC(=O)NCCN2CCOCC2)c2ccccc21
  0.51, 0.7
> CCCCN1Cc2c(sc3c2CCCC3)N(C(C)=O)C1
  -0.78, 0.2
> O=S(=O)(Nc1ccccc1CO)c1ccc(S(=O)(=O)N2CCCC2)cc1
  x, 1.9
> O=C1CN(c2cccc(C(F)(F)F)c2)C(=O)CN1/N=C/c1cccnc1
  -0.28, 3.6
> CCOC(=O)c1ccccc1Nc1nc2ccccc2c2nnc(C)n12
  x, -1.3
> Cc1ccc(N2C(N)=NC(N)=NC2(C)C)cc1
  0.28, -2.2
> OC1(C#Cc2ccccc2)CCCCC1
  -0.51, 4.3
> O=C(O)CNc1c(F)c(F)nc(F)c1F
  x, 1.4
> O=C(COc1ccc2c(=O)c(-c3ccccc3)coc2c1)OC1CCCCC1
  x, 2.6
> O=C(CSc1ncn(-c2ccccc2)n1)N1CCc2ccccc21
  0.094, -1.9
> Cc1noc(C)c1CC(C#N)(Cc1c(C)noc1C)c1nc(-c2ccc(Cl)cc2Cl)cs1
  x, -1.7
> NNC(=O)c1cncn1-c1ccccc1
  x, 0.9

Next results:
Values run as follows: KSHV LANA nucl, BasE inh
> COc1ccc(OC)c(S(=O)(=O)NC2CCCC(C)C2C)c1 (configuration not stated)
  0.26, -3.7
> COc1ccc(C2Nc3ccccc3O2)cc1 (configuration not stated)
  x, -1.0
> O=C(O)CCSc1nccn1Cc1ccccc1
  -0.8, -0.6
> CC(Sc1nnc(COc2ccc(Cl)cc2)n1C)C(N)=O (configuration not stated)
  x, 0.5
> COc1ccc(CN)cc1Cn1cccn1
  0.58, -1.2
> CN(C)/C=N/c1nc(-c2ccc3c(c2)OCO3)cs1
  x, 2.6
> Cn1c(CNC(=O)c2cccs2)cc2ccccc21
  -0.76, 1.0
> Cc1[nH]c(SCC(=O)O)nc1Cc1ccccc1
  x, 0.9
> CC(=O)Nc1c(C(=O)N2CCN(c3ccccc3)CC2)oc2ccccc12
  x, -2.0
> N#Cc1ccccc1CSc1nc2c(sc(=S)n2Cc2ccco2)c(=O)n1-c1ccc(F)cc1
  0.48, 1.1
> O=C(c1ccc(CS(=O)(=O)c2ccc(Br)cc2)o1)N1CCN(Cc2ccc3c(c2)OCO3)CC1
  0.28, -0.4
> Cn1c(C(C#N)C(=O)c2ccccc2I)nc2ccccc21 (configuration not stated)
  x, 0.7
> CSc1ccc(C2CC(=O)Nc3c2c(=O)nc(SC)n3C)cc1 (configuration not stated)
  0.22, 3.6
> COc1cc(/C=c2/sc3nc4ccccc4n3c2=O)ccc1O
  0.19, -0.4
> Cc1ccc(-c2csc3ncn(-n4c(C)ccc4C)c(=O)c23)cc1
  x, -0.3

More records.
Values run as follows: KSHV LANA nucl, BasE inh
> N#Cc1nc2c(S(=O)(=O)c3ccc(Cl)cc3)c(N)n(Nc3cccc(Cl)c3)c2nc1C#N
  x, 2.0
> CCn1nc(C)c(NC(=O)c2cc(Br)ccc2Cl)c1C
  0.014, 1.1
> c1ccc2c(c1)ncn2CCC1CCCCC1
  x, 2.9
> CCOC(=O)N1CCC(NC(=O)CS(=O)(=O)Cc2nc(-c3cccc(OC)c3)oc2C)CC1
  -0.61, -0.7
> CCN1CCN(/C=N/c2nc3c(s2)CCCC3)CC1
  x, -0.8
> CC(C)Cn1c(SC(C)C(N)=O)nc2ccccc21 (configuration not stated)
  x, -4.4
> CC1=C(CCN2CCN(C/C=C/c3ccccc3)CC2)C(C)(C)CCC1
  0.11, -2.6
> O=C1Nc2cc(Cl)ccc2SC2CCCCC2O1 (configuration not stated)
  -0.12, 8.3
> Cc1ccc(NC(=O)/C=C2\SC(=O)NC2=O)cc1
  -0.63, 0.8
> C=CCn1c(C)cc(C(=O)CSc2nnc3n2CCCCC3)c1C
  x, -2.4
> O=C(Cn1ccc2cc(S(=O)(=O)N3CCCCC3)ccc21)N1CCCCC1
  x, -1.3
> CC12CCC(=O)N1C(C(=O)OCC(=O)Nc1sccc1C#N)CS2 (configuration not stated)
  x, 2.4
> COC(=O)c1cc(C)sc1NC(=O)C1CC(=O)NN1Cc1ccccc1 (configuration not stated)
  -0.24, -2.2
> Cc1cc(C)cc(-n2cc3c(=O)n(C)c(=O)n(C)c3c2)c1
  1, 2.2
> CS/C(=N\S(=O)(=O)c1ccc(C)cc1)N1CCN(C(=O)c2cccs2)CC1
  x, -1.0

(next part)
Values run as follows: KSHV LANA nucl, BasE inh
> Cn1c(=O)n(CCc2ccccc2)c2ccccc21
  -0.34, 2.4
> COc1ccc(C2CC(c3ccc(Cl)c(Cl)c3)Nc3nc(N)nn32)cc1OC (configuration not stated)
  -0.04, -2.2
> O=C(O)c1cccc(I)c1
  x, -0.3
> C=CCn1c(CSc2nc(N)cc(N)n2)nnc1SCC(=O)NC1CCCCC1
  0.84, 0.0
> COc1ccc2c3c(cccc13)OCC2=O
  0.008, 2.9
> CCOC(=O)c1c2c(n3ccccc13)C(=O)c1ccccc1C2=O
  x, 8.3
> Cc1oc(-c2cccs2)nc1CS(=O)CC(=O)NC1CCCC1 (configuration not stated)
  0.12, 0.1
> COc1cccc(NC(=O)c2cn(C)c(=O)c3cc(OC)c(OC)cc23)c1
  -0.6, -13
> CC1Cc2ccccc2N1C(=O)C1CC(=O)N(c2ccccc2)C1 (configuration not stated)
  -1.1, -1.9
> Cc1ccc(-n2c(C)c(C)c3c2N=CN2CCS(=O)(=O)N=C32)cc1
  x, 2.3
> N#CCSc1ccc(-c2cccnc2)nn1
  -0.48, 0.6
> CC(Sc1nnc(-c2cccc(Cl)c2)n1N)C(=O)NC1CCCCC1 (configuration not stated)
  x, 2.0
> O=C(Cn1nnc(-c2ccccc2)n1)NC(=O)NCc1ccccc1
  x, -1.0
> COC(=O)c1cn(C(=O)c2ccccc2)c2ccccc12
  x, 1.7
> O=C(NCCCN1CCOCC1)C1CC(c2ccccc2O)=NO1 (configuration not stated)
  -1.5, -1.7

(next part)
Values run as follows: KSHV LANA nucl, BasE inh
> N#Cc1c(SCC(=O)N2CCOCC2)nsc1SCC(=O)N1CCOCC1
  0.043, 1.5
> COC(Cn1cc2c(c1-c1ccccc1Br)c(=O)n(C)c(=O)n2C)OC
  0.76, -2.3
> CCCCn1c(C)c(Cc2ccccc2)[nH]c1=O
  x, -4.8
> Cc1cc(C)nc(/N=C2\NC(=O)CN2c2cc(Cl)cc(Cl)c2)n1
  -1.3, 0.4
> CCOc1cc(/C=C2/C(=O)ON=C2C)cc(Cl)c1OCc1ccc(F)cc1
  x, 2.9
> CCn1c(=NC(=O)C(C)(C)C)sc2ccccc21
  0.82, -1.1
> Cc1nc2ccccc2nc1SCc1nc(N)nc(N2CCCCC2)n1
  0.61, 2.0
> Cc1[nH]c(=S)c(C#N)c(C)c1Cc1ccc(Cl)cc1Cl
  x, 3.5
> CC1(C)CC(=O)CC(c2ccccc2)(C(F)(F)F)O1 (configuration not stated)
  -0.29, 0.6
> CS(C)(=O)=NS(=O)(=O)c1cc(S(=O)(=O)N=S(C)(C)=O)c(Cl)s1
  -0.35, 4.6
> CCOC(=O)NC1(Nc2ccccc2)Oc2ccccc2O1
  -0.19, 1.9
> CSc1nnc(CNC(=O)Cc2c(F)cccc2Cl)n1C
  -0.45, 0.1
> OC1C(O)C(O)C(O)C(O)C1O (configuration not stated)
  0.1, x
> CCOC(=O)c1cnc2cc(OC)ccc2c1Cl
  0.38, -0.7
> CCC(CC)NS(=O)(=O)c1ccc(Br)cc1
  -0.25, -0.2

3 of the entries above in order of their number in KSHV LANA nucl, highest first.
canonical_smiles,KSHV LANA nucl
Cc1oc(-c2cccs2)nc1CS(=O)CC(=O)NC1CCCC1 (configuration not stated),0.12
CS(C)(=O)=NS(=O)(=O)c1cc(S(=O)(=O)N=S(C)(C)=O)c(Cl)s1,-0.35
Cc1cc(C)cc(OC(C)C(=O)Nc2ccc3c(c2)n(C)c(=O)n3C)c1 (configuration not stated),-1.5

Additional results follow:
Values run as follows: KSHV LANA nucl, BasE inh
> Cc1cc(O)c(C(=O)c2cccs2)c(=O)o1
  x, -1.4
> COc1ccc(OCCSc2nnc(-c3ccc(OC)cc3)o2)cc1
  x, 0.3
> COc1ccc(CCn2c(N)c(-c3nc4ccccc4[nH]3)c3nc(C#N)c(C#N)nc32)cc1OC
  x, 0.1
> NC(=O)C1CCN(C(=O)C2C3C=CC(O3)C2C(=O)O)CC1 (configuration not stated)
  -0.95, 0.8
> COc1cc(/C=C(\NC(C)=O)C(=O)O)cc(OC)c1OC
  x, -0.1
> COc1ccc(N2CCN(Cc3cn4c(C)cc(C)nc4n3)CC2)cc1
  x, 3.6
> COCCN1C(=O)CS/C1=C(/C#N)C(=O)NCc1ccco1
  x, -2.1
> CCN(CC)CCCNC1CCCC1
  x, 2.1
> CCOC(=O)c1noc(N)c1-c1ccccc1
  x, 1.2
> CCOc1ccc(OC(C)C(=O)NN)cc1 (configuration not stated)
  x, 1.0
> CCc1cccc(NC(=O)COC(=O)Cc2cn3ccsc3n2)c1
  x, -1.4
> COc1ccc(CCNc2ncnc3sccc23)cc1
  x, 0.0
> CCOC(=O)c1ccc(NC(=O)c2cc3cc4c5c(c3oc2=N)CCCN5CCC4)cc1
  x, 12
> CCS/C=C/C#CC1(O)CCCCC1
  0.56, 0.5
> CCN(Cc1ccccc1)C(=O)/C=C/c1ccc(OC)cc1
  1.2, -2.9

Continuation.
Values run as follows: KSHV LANA nucl, BasE inh
> O=C(NC1CCSC1=O)C1CCCCC1 (configuration not stated)
  -1.1, 2.9
> O=C(O)C1CCC(=O)N(C2CCCCC2)C1c1ccccc1 (configuration not stated)
  0.63, x
> C=CCNC(=O)C(c1ccccc1)c1ccccc1
  x, -4.0
> O=C(OC1CCCCC1)C1CCN(S(=O)(=O)c2cccc3nsnc23)CC1
  x, 1.7
> CCOC(=O)C1CCC(CNC(=O)N2CCSc3ncccc32)CC1 (configuration not stated)
  x, 0.5
> CCCCn1nnc(NC(=O)CC23CC4CC(CC(C4)C2)C3)n1
  0.18, -1.3
> Clc1ccc(CSc2nnc([C@@H]3CCCN3)o2)cc1
  2, -3.7
> O=C(Oc1ccc(-c2ccccc2)cc1)c1cccs1
  x, -0.1
> CCOC(=O)c1c(C)[nH]c(NC(=O)Nc2ccccc2Br)c1C
  -0.88, 1.4
> COc1cccc(CNC(=O)C23CC4CC(CC(O)(C4)C2)C3)c1
  x, 0.3
> COc1ccc(-c2cc(=O)c3cc(OC(=O)c4ccc(OC)c(OC)c4)ccc3o2)cc1
  x, -2.0
> CCN(C1CCCCC1)S(=O)(=O)c1cc(F)ccc1OC
  2, -0.1
> CCn1c(C)nc2cc(S(=O)(=O)N3CCOCC3)ccc21
  x, 1.1
> CCN(c1ncnc2c1oc1ccccc12)C1CCCCC1
  x, 0.7
> CCCn1nc(C(=O)N2CCN(CC)CC2)c2ccccc2c1=O
  x, 0.8

New compounds follow:
Values run as follows: KSHV LANA nucl, BasE inh
> Cn1c(NNC(=O)C(C)(C)Oc2ccc(Cl)cc2)cc(=O)n(C)c1=O
  -0.015, -0.1
> CC(C)CSc1nsc2nc(=O)c(C=C3C=CC(=O)C=C3)c(N)n12
  0.089, 0.4
> N#CC1=C(N=Cc2ccccc2O)CCC1
  0.066, -0.8
> COc1cc2c(cc1OC)CN(CC(=O)Nc1ccccc1C(=O)NC1CC1)CC2
  x, 0.6
> COc1ccc(-n2c(C)cc(CNC(=O)NC3CCCC3)c2C)cc1
  x, -0.7
> CC(C)n1ncc2c1N=C(c1ccccc1)N(C1CC1)C21CCCCC1
  x, -1.6
> COc1cccc(C(=O)Nc2ccccc2SCc2cc(=O)n3c(C)csc3n2)c1
  1.5, -1.6
> CCOc1cc(C2C3=C(CC(C)(C)CC3=O)N(C)C3=C2C(=O)CC(C)(C)C3)ccc1O
  0.6, 2.6
> CCOCCCn1c(SCc2nc3sc(C(=O)O)c(C)c3c(=O)[nH]2)nnc1-c1ccc(Cl)cc1
  x, -0.5
> COc1ccccc1NC(=O)N(CC#N)c1ccccc1
  x, -4.0
> CCc1ccc(NC(=O)CCc2nnc3ccc(N(CC)CC)nn23)cc1
  -2, -1.3
> CC(C)NS(=O)(=O)c1cccs1
  1.1, -0.8
> O=C(Nc1ccc(C(F)(F)F)cc1)c1csc(-c2ccncc2)n1
  0.029, x
> O=C(O)C(c1ccc(F)cc1)N1Cc2ccccc2C1=O (configuration not stated)
  -0.32, 0.8
> CN(CCO)C12CC3CC(CC(C3)C1)C2
  0.86, 3.6

Entries listed so far that have a CF3 group:
Values run as follows: KSHV LANA nucl, BasE inh
> O=C1CN(c2cccc(C(F)(F)F)c2)C(=O)CN1/N=C/c1cccnc1
  -0.28, 3.6
> CC1(C)CC(=O)CC(c2ccccc2)(C(F)(F)F)O1 (configuration not stated)
  -0.29, 0.6
> O=C(Nc1ccc(C(F)(F)F)cc1)c1csc(-c2ccncc2)n1
  0.029, x

Continuation.
Values run as follows: KSHV LANA nucl, BasE inh
> COc1ccc(Br)cc1CNC(=O)c1ccc(N2C(=O)Cn3c(cc4sccc43)C2=O)cc1
  -1, 2.3
> O=C(NCCCO)c1ccc2[nH]c3ccccc3c2c1
  0.22, -2.0
> Nc1ccnn1Cc1ccco1
  0.32, 0.0
> COC(=O)C1C(=O)NC(SCC(=O)NCc2ccccc2)=C(C#N)C1c1ccccc1F (configuration not stated)
  x, -0.2
> CN1C(=O)/C(=C\c2ccncc2)SC1=S
  x, 1.6
> Cc1ccc(SC(C)C(=O)Nc2ccccc2C#N)cc1C (configuration not stated)
  x, -1.9
